Assay outcomes deposited in PubChem by several laboratories.
HNF4A DNA FP = change in binding of human HNF4A to DNA, primary screen, biochemical, fluorescence polarization, FITC-DNA | Hepatocyte nuclear factor 4-alpha (Homo sapiens), P41235 | hit rate 0.3% among 360,000 | activity change, % at 10 µM | 1 h; in the data active means activity change above about 30%, passing the limit was not always enough;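 further: controls were the assay level and a saturating level of protein; the project sought stronger binding though the title names inhibitors; some compounds called inactive have numbers as strong as hits; positive values seem to mean higher polarization but the record does not say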
Target sequence (P41235 whole entry, looked up): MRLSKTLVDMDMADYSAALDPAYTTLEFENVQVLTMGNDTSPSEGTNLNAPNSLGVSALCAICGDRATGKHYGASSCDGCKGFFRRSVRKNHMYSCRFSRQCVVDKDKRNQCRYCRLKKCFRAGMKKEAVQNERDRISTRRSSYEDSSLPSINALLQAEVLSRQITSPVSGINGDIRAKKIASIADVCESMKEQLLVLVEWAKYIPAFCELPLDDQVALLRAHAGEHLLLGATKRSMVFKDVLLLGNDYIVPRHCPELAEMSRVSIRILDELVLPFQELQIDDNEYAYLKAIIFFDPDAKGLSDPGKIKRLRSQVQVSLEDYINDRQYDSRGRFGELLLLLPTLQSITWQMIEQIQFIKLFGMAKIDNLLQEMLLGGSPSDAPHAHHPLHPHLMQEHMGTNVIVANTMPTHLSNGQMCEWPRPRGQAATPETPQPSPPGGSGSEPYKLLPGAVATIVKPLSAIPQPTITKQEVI
UCH37 inh = inhibitors of human UCH37 deubiquitinase, primary screen, biochemical, Ub-AMC cleavage, fluorescence; Ubiquitin carboxyl-terminal hydrolase isozyme L5 (Homo sapiens), Q9Y5K5; purified proteasome/UCH37; inhibition, % (no concentration beside the values); hit rate 0.33% among 330,000;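 active means mean of two replicates above 20%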;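 further: 0% = compound-free wells with enzyme and 100% = wells lacking proteasome; stock transfer was 100 nL into about 20 µL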
Target sequence (Q9Y5K5 whole entry, looked up): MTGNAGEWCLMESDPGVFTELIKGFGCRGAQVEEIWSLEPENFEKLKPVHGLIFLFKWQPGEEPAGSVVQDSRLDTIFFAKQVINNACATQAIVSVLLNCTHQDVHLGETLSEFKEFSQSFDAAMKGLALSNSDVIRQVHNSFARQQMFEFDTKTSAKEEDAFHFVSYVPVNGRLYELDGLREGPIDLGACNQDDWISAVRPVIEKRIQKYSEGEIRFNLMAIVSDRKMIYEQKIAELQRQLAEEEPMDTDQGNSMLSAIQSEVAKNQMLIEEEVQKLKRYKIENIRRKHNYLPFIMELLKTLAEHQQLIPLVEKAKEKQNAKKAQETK
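Schedule: 30 min plus 25 min, room temperature / Material: human UCH37 within purified proteasomes / Technique: AMC fluorescence intensity at 355/460 nm / Buffer or medium: pH 7.4 Tris-HCl (50 mM) with ovalbumin, ATP-MgCl2, DTT / Controls: wells without proteasome as full block, compound-free enzyme plus substrate as uninhibited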
FGF22 binding = binders of human FGF22 protein, primary screen, FGF22 synaptogenesis inhibitor project, biophysical, thermal shift, single point; Fibroblast growth factor 22 (Homo sapiens), Q9HCT0; recombinant FGF22 thermal shift, SYPRO orange fluorescence; percent of sucrose octasulfate shift, DMSO zero; calls only at 9.99 µM; hit rate 1.5% among 340,000; AID 651658, 2012;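 active means melting point raised past a set limit in the mean and every replicate; inconclusive means no clear call; three in four hits are not shown here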
Target sequence (Q9HCT0 whole entry, looked up): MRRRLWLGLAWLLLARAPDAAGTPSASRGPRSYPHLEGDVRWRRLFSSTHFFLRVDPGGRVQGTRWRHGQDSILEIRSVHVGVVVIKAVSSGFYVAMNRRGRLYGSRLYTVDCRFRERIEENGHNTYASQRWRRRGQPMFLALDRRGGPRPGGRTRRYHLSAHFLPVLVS
Vif TR-FRET = inhibitors of Vif binding to APOBEC3G peptide, primary screen, biochemical, TR-FRET, GST-Vif 1-94, biotin-A3G peptide, dose response retest (AID 1117319); Virion infectivity factor (Human immunodeficiency virus type 1 group M subtype B (isolate …; TR-FRET GST-Vif / biotin-A3G peptide binding; higher % means a stronger effect; test concentration not given here; strong numbers were not always called active; one-dose inhibition, %; IC50 in µM for titrated hits; hit rate 0.57% among 260,000;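 active means above the screen mean plus three standard deviations and confirmed in dose response; inconclusive means results disagree or hit not tested in dose response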;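 further: Vif residues 1-94 fused to GST binding biotinylated APOBEC3G peptide 110-148; 0% = full assay without inhibitor and 100% = GST in place of GST-Vif; retest series ran down from 100 µM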
RanGTP-Impb inh = inhibitors of RanGTP-importin-beta interaction, primary screen, biochemical, FRET, CFP-Ran, YFP-importin-beta, homogeneous | Ran GTPase (GTP-bound) - importin-beta complex | cell-free CFP-Ran/YFP-importin-beta FRET ratio | inhibition, % (no concentration beside the values) | hit rate 1.1% among 300,000 | AID 2216, 2009;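 active means most replicates above 15%; inconclusive means exactly half above 15%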;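 further: 0% = DMSO wells and 100% = Ran loaded with GDP instead of GTP; wells of about 40 µL received 100 nL stock; the first replicate is given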
Ecoli growth = E. coli growth inhibition, primary screen, OD600 | AID 1053175, 2014 | OD600 absorbance (test concentration not listed) | hit rate 0.21% among 330,000 | Escherichia coli growth, 23 h; hits give low values;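 active means OD600 absorbance below the run mean of sample wells minus 3.6 SD, in any replicate, cut at about 0.56 in these data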;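 further: stock transfer was 300 nL into about 60 µL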
AF4-AF9 inh = inhibitors of AF4 peptide binding to AF9, primary screen, biochemical, AlphaScreen, biotin-AF4 peptide, FLAG-AF9, single point; Protein AF-9 (Homo sapiens), P42568; inhibition, % at 10 µM; hit rate 0.47% among 350,000;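 active means every replicate reaching a set inhibition limit, whatever the replicate mean, cut at about 25% in these data; inconclusive means mean inhibition reaches that limit but some replicates miss it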;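 further: 0% = plate neutral control median and 100% = total signal loss; the record names both 10 and 1 µM as test concentration; the first replicate is given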
Numbers without * were called inactive.

Results for COC(=O)[C@]12CCCCC=C1N(Cc1ccccc1)C(=O)[C@H](CC(=O)NCc1ccc(C)o1)C2 ?
HNF4A DNA FP: -0.7; FGF22 binding: inactive; AF4-AF9 inh: 6.5

How did Cc1occc1C(=O)NNC(=O)c1ccccc1F do in these assays?
HNF4A DNA FP: 1.9; UCH37 inh: 4.3; FGF22 binding: inactive; Vif TR-FRET: -6%; RanGTP-Impb inh: -1.2; Ecoli growth: 0.67; AF4-AF9 inh: 10

How did O=C(Nc1ccccc1O)c1cccc(S(=O)(=O)Nc2ccccc2O)c1 do in these assays?
HNF4A DNA FP: 0.7; UCH37 inh: 1.8; FGF22 binding: inactive; RanGTP-Impb inh: 3.7; Ecoli growth: 0.68; AF4-AF9 inh: 2.8

Results for CCN(CC)c1ccc(/C=N/NC(=O)c2cccc(S(=O)(=O)Nc3ccccc3OC)c2)cc1 ?
HNF4A DNA FP: 11; FGF22 binding: inactive; Vif TR-FRET: -3%; RanGTP-Impb inh: 4.7; AF4-AF9 inh: 2.1

What do the screens show for `O=C(Cn1cc(C(=O)c2ccco2)c2ccccc21)Nc1ccccc1F`?
HNF4A DNA FP: -1.3; UCH37 inh: 1.7; FGF22 binding: inactive; Vif TR-FRET: 1%; RanGTP-Impb inh: 2.3; Ecoli growth: 0.66; AF4-AF9 inh: 0.1

Results for O=C(NCc1ccco1)c1cc2n(n1)C(C(F)(F)F)CC(c1ccc(Br)cc1)N2 (stereo unspecified) ?
HNF4A DNA FP: -3.2; UCH37 inh: 1.9; Vif TR-FRET: 1%; RanGTP-Impb inh: 1.7; Ecoli growth: 0.74

What do the screens show for `Cc1cccc(-n2cnc3cc(C(=O)N4CCc5ccccc54)ccc32)c1`?
HNF4A DNA FP: -1.8; UCH37 inh: -1.4; RanGTP-Impb inh: -2.7; Ecoli growth: 0.66

Results for CCC(=O)N1CCC2(CC1)Oc1ccc(F)cc1C(=O)C21CC(c2ccc(Cl)cc2)=NO1 (stereo unspecified) ?
HNF4A DNA FP: -0.1; UCH37 inh: 1.2; FGF22 binding: inactive; Vif TR-FRET: -11%; RanGTP-Impb inh: -3.9; Ecoli growth: 0.72

What do the screens show for `CCc1cccc(NS(=O)(=O)c2c(C)nc3scc(C)n3c2=O)c1`?
HNF4A DNA FP: -0.1; UCH37 inh: 3.4; FGF22 binding: inactive; RanGTP-Impb inh: 3.1; Ecoli growth: 0.66; AF4-AF9 inh: -0.2

How did Cc1ccc(N(CC(=O)NCc2ccccc2)C(=O)CCC(=O)Nc2ccccn2)cc1C do in these assays?
HNF4A DNA FP: -2.3; UCH37 inh: 1.5; FGF22 binding: inactive; Vif TR-FRET: 0%; RanGTP-Impb inh: 2.0; Ecoli growth: 0.69; AF4-AF9 inh: 4.3

What do the screens show for `CC(C)c1ccc(NC2CCCN(C(=O)c3cnc4ccccn4c3=O)C2)cc1` (stereo unspecified)?
HNF4A DNA FP: 0.5; UCH37 inh: 0.9; FGF22 binding: inactive; Vif TR-FRET: 0%; RanGTP-Impb inh: 1.0; Ecoli growth: 0.7; AF4-AF9 inh: 0.9

How did CCOC(=O)C1CCC(CN(Cc2ccccc2C)S(=O)(=O)c2ccc([N+](=O)[O-])cc2)CC1 (stereo unspecified) do in these assays?
HNF4A DNA FP: 0.4; UCH37 inh: 1.1; Vif TR-FRET: 30%; RanGTP-Impb inh: inconclusive; Ecoli growth: 0.7

What do the screens show for `COc1cccc(CNS(=O)(=O)c2cccc(S(=O)(=O)N3CCOCC3)c2)c1`?
HNF4A DNA FP: -0.5; UCH37 inh: 1.0; Vif TR-FRET: 1%; RanGTP-Impb inh: 7.0; Ecoli growth: 0.69

How did O=C(NNC(=O)c1cc(-c2ccccc2)nc2ccccc12)c1csc(N2CCOCC2)n1 do in these assays?
HNF4A DNA FP: 5.0; UCH37 inh: 2.3; FGF22 binding: inactive; Vif TR-FRET: 6%; RanGTP-Impb inh: 1.9; Ecoli growth: 0.71; AF4-AF9 inh: -5.5

What do the screens show for `CCc1cc(-c2n[nH]c(CCC(=O)O)c2-c2nc3ccccc3n2C)c(O)cc1O`?
HNF4A DNA FP: 2.5; UCH37 inh: 0.6; FGF22 binding: inactive; Vif TR-FRET: 1%; RanGTP-Impb inh: 0.3; Ecoli growth: 0.69; AF4-AF9 inh: -2.8

Results for CN(C)S(=O)(=O)c1ccc(C(=O)Nc2cccc(S(=O)(=O)NC3=NCCC3)c2)cc1 ?
HNF4A DNA FP: -0.3; UCH37 inh: -1.9; FGF22 binding: inactive; Vif TR-FRET: 3%; RanGTP-Impb inh: 7.5; Ecoli growth: 0.73; AF4-AF9 inh: 5.6

Results for COc1ccc(/C=N/Nc2ccccn2)cc1OC ?
HNF4A DNA FP: 4.8; FGF22 binding: inactive; Vif TR-FRET: 18%; RanGTP-Impb inh: -2.7; AF4-AF9 inh: 3.5

How did COc1ccc(NC(=O)c2ccc(NCCN3C(=O)CCC3=O)c([N+](=O)[O-])c2)cc1 do in these assays?
HNF4A DNA FP: -4.0; UCH37 inh: 2.5; FGF22 binding: inactive; Vif TR-FRET: -1%; RanGTP-Impb inh: 0.8; Ecoli growth: 0.63; AF4-AF9 inh: -0.9

What do the screens show for `CC(=O)c1ccc(NC(=O)CN2C(=O)NC(C)(c3ccc4c(c3)OCCO4)C2=O)cc1` (stereo unspecified)?
HNF4A DNA FP: 0.8; UCH37 inh: 3.5; FGF22 binding: inactive; Vif TR-FRET: -2%; Ecoli growth: 0.69; AF4-AF9 inh: 4.5

What do the screens show for `Clc1ccc(/C=N/N2CCCCC2)cc1`?
HNF4A DNA FP: 1.4; FGF22 binding: inactive; RanGTP-Impb inh: -1.7; AF4-AF9 inh: -2.9

What do the screens show for `CC(C)OP(=O)(c1ccc(N(C)C)cc1)C(Nc1ccccc1)c1ccccc1` (stereo unspecified)?
HNF4A DNA FP: 0.4; UCH37 inh: 4.2; FGF22 binding: inactive; Vif TR-FRET: -8%; RanGTP-Impb inh: -3.5; Ecoli growth: 0.68; AF4-AF9 inh: 8.1

How did O=C(CN1CCN(c2ccc(Cl)cc2)CC1)NCc1cccs1 do in these assays?
HNF4A DNA FP: -0.4; UCH37 inh: 4.4; FGF22 binding: inactive; Vif TR-FRET: 1%; RanGTP-Impb inh: 0.9; Ecoli growth: 0.72; AF4-AF9 inh: -0.8

What do the screens show for `CCN1CCN(C(=O)C2CCC(=O)N(CCCN3CCCC3=O)C2)CC1` (stereo unspecified)?
HNF4A DNA FP: -2.2; UCH37 inh: 0.6; FGF22 binding: inactive; RanGTP-Impb inh: 2.5; Ecoli growth: 0.72; AF4-AF9 inh: -23

Results for CCc1nc(SCC(=O)Nc2ccc3c(c2)OCCO3)c2oc3ccccc3c2n1 ?
HNF4A DNA FP: -4.0; UCH37 inh: 2.1; Vif TR-FRET: -15%; RanGTP-Impb inh: 2.2; Ecoli growth: 0.73

How did O=C(N/N=C/C1CC2CCC1C2)C1CC1 (stereo unspecified) do in these assays?
HNF4A DNA FP: 2.1; FGF22 binding: inactive; Vif TR-FRET: -3%; RanGTP-Impb inh: 1.7; AF4-AF9 inh: -1.9

What do the screens show for `CCC(=O)c1ccc(OCC(=O)Nc2ccc3c(c2)OCCO3)cc1`?
HNF4A DNA FP: 3.1; UCH37 inh: -0.6; FGF22 binding: inactive; Vif TR-FRET: 2%; Ecoli growth: 0.65; AF4-AF9 inh: -11

Results for Cc1ccc(NCC(=O)Nc2cccc(S(=O)(=O)N(C)C)c2)c(Cl)c1 ?
HNF4A DNA FP: -2.3; UCH37 inh: 1.2; RanGTP-Impb inh: -0.9; Ecoli growth: 0.64

How did CC(C(=O)NC(N)=O)N1C(=O)NC(c2ccccc2)(c2ccccc2)C1=O (stereo unspecified) do in these assays?
HNF4A DNA FP: 0.2; UCH37 inh: 2.7; FGF22 binding: inactive; RanGTP-Impb inh: -1.0; Ecoli growth: 0.7; AF4-AF9 inh: 0.7

What do the screens show for `COc1cccc(C2C(C#N)=C(N)N(N(C)C)C3=C2C(=O)CC(C)(C)C3)c1OC` (stereo unspecified)?
HNF4A DNA FP: 0.1; UCH37 inh: 6.8; FGF22 binding: inactive; Vif TR-FRET: 0%; RanGTP-Impb inh: -3.0; Ecoli growth: 0.69; AF4-AF9 inh: -0.2

Results for CC1CCN(S(=O)(=O)c2ccc3c(c2)N(CC(=O)NCCCN2C(C)CCCC2C)C(=O)CO3)CC1 (stereo unspecified) ?
HNF4A DNA FP: 2.4; UCH37 inh: 0.4; FGF22 binding: inactive; Vif TR-FRET: 4%; RanGTP-Impb inh: inconclusive; Ecoli growth: 0.72; AF4-AF9 inh: -6.7

Taken from above (2 entries):
What do the screens show for `CCN1CCN(C(=O)C2CCC(=O)N(CCCN3CCCC3=O)C2)CC1` (stereo unspecified)?
HNF4A DNA FP: -2.2; UCH37 inh: 0.6; FGF22 binding: inactive; RanGTP-Impb inh: 2.5; Ecoli growth: 0.72; AF4-AF9 inh: -23

Results for CCc1nc(SCC(=O)Nc2ccc3c(c2)OCCO3)c2oc3ccccc3c2n1 ?
HNF4A DNA FP: -4.0; UCH37 inh: 2.1; Vif TR-FRET: -15%; RanGTP-Impb inh: 2.2; Ecoli growth: 0.73

More structures
How did Cc1nc(NC(=O)/C=C/c2ccc(Cl)cc2Cl)sc1C(=O)N(C)C do in these assays?
HNF4A DNA FP: 3.4; UCH37 inh: -65; FGF22 binding: inactive; RanGTP-Impb inh: -3.1; Ecoli growth: 0.75; AF4-AF9 inh: 2.1

Results for Nn1cnnc1SCC(=O)Nc1ccc(C2CCCCC2)cc1 ?
HNF4A DNA FP: -0.4; UCH37 inh: 3.2; Vif TR-FRET: 17%; RanGTP-Impb inh: 0.2; Ecoli growth: 0.71

How did C[C@]12CC[C@@H]3c4ccc(O[C@@H]5O[C@H](C(=O)O)[C@@H](O)[C@H](O)[C@H]5O)cc4CC[C@H]3[C@@H]1C[C@@H](O)[C@@H]2O do in these assays?
HNF4A DNA FP: 1.9; UCH37 inh: 0.8; FGF22 binding: inactive; Vif TR-FRET: 22%; RanGTP-Impb inh: 0.8; AF4-AF9 inh: -2.9

Results for CSc1ccc(CN2CCC2(C)C(=O)Nc2ccc3c(c2)OCO3)cc1 (stereo unspecified) ?
HNF4A DNA FP: -3.1; FGF22 binding: inactive; AF4-AF9 inh: -1.1

Results for Cc1cc(N2CCC(C)CC2)nc2cccc(O)c12 ?
HNF4A DNA FP: -0.1; UCH37 inh: 0.0; FGF22 binding: inactive; Vif TR-FRET: 14%; RanGTP-Impb inh: -2.0; Ecoli growth: 0.74; AF4-AF9 inh: 10

How did CC(=O)N1c2ccccc2C(=O)C1N(C)c1ccc(C)cc1 (stereo unspecified) do in these assays?
HNF4A DNA FP: -2.1; UCH37 inh: -9.8; FGF22 binding: inactive; Vif TR-FRET: -6%; RanGTP-Impb inh: 6.2; Ecoli growth: 0.68; AF4-AF9 inh: 2.1

What do the screens show for `Cc1cccc(C)c1NC(=O)C1c2ccccc2OCC(=O)N1C1CC1` (stereo unspecified)?
HNF4A DNA FP: -1.0; FGF22 binding: inactive; AF4-AF9 inh: 1.6

How did CCOC(=O)c1ccccc1NC(=O)Cc1ccc(OC)c(S(=O)(=O)N2CCOCC2)c1 do in these assays?
HNF4A DNA FP: 1.0; UCH37 inh: 0.5; FGF22 binding: inactive; Vif TR-FRET: 11%; Ecoli growth: 0.67; AF4-AF9 inh: -0.7

Only part of the results is shown; rates above refer to the full screens.
